TRPML1 blocker – qHTS for Inhibitors of the Human Mucolipin Transient Receptor Potential 1 (TRPML1) | AID 624415, 2012 | 390,000 tested, 0.02% active | activity change, negative = inhibition, % (no concentration beside the values) | TRPML1-inducible cells, Ca2+ dye fluorescence, FDSS; hits give low values; inhibition of EC80 agonist-evoked calcium signal; in the data active means activity change below about -50%; inconclusive means about -30% to -50%; inactive means above about -30%;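 note: stimulus is agonist 54-4 at its EC80 concentration; % is set by controls: 0 for no effect and ±100 for the full control effect; compound concentration not given in the record; the text of the record puts the active cut at -80%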
Target sequence (Q9GZU1 whole entry, looked up): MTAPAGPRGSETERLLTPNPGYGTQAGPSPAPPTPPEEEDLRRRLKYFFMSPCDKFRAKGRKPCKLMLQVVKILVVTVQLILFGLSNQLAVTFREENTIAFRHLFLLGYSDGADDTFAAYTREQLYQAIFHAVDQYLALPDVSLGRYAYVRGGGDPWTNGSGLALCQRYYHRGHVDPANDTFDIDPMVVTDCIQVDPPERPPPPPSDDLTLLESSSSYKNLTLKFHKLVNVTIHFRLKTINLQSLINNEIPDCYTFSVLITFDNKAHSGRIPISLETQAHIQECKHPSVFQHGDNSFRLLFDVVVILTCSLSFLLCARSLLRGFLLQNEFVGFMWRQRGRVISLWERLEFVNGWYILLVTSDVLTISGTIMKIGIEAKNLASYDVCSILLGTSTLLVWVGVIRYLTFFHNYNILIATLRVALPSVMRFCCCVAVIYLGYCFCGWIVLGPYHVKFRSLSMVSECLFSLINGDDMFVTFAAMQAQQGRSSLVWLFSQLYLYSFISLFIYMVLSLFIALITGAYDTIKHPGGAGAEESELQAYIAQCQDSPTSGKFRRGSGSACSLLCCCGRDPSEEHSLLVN
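Tet-induced TRPML1-DL cells loaded with Ca8 no-wash calcium dye were read kinetically on FDSS. Compound addition was followed by EC80 agonist 54-4 (4 uM final); inhibition was read over 110 s.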
TRPML1 agonist – qHTS for Agonists of the Human Mucolipin Transient Receptor Potential 1 (TRPML1) | activation, % (no concentration beside the values) | 410,000 tested, 0.12% active | AID 624414, 2012 | TRPML1-expressing cells, Ca2+ dye fluorescence, FDSS; host cell line not named in the record; reference of the full effect not given here; in the data active = activation above about 50%; inconclusive = about 30% to 50%; inactive = below about 30%; note: 0% is about no effect; the text of the record puts the active cut at 80%
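Cells: TRPML1-DL, 1X Tet inducer, ~16 h at 37 degrees C/5% CO2. Dye: ABD Ca8 no-wash + quencher, 45-90 min RT. Read: 10 s baseline, compound add, 110 s agonist phase; 54-4 EC80 (4uM final), 110 s antagonist phase.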
* = called active by the depositor; ? = inconclusive.

SMILES	TRPML1 blocker	TRPML1 agonist
COc1cccc(CSc2nc3n(n2)C(CC(C)C)C(C(=O)Nc2ccccc2OC)=C(C)N3)c1 (stereo not given)	-11	0.1
Cc1cccc(N(CC(O)Cn2c3ccccc3c3ccccc32)S(=O)(=O)c2ccc(F)cc2)c1 (stereo not given)	48	0.7
Cc1cccn2c3c(c(=O)nc12)C(c1cccc(F)c1)CC(=O)N3 (stereo not given)	-3	1.6
Cc1ccc(OCCCn2c(-c3ccc(Cl)cc3)nc3ccccc3c2=O)c(C)c1	9	-0.7
COc1ccc(-c2cc(C(F)(F)F)nc(SCC(=O)NCCc3ccc(OC)c(OC)c3)n2)cc1	-1	-0.2
O=C(CCS(=O)(=O)c1cccc2nonc12)Nc1c(F)cccc1F	9	-0.7
Cc1nc2ccccc2n1CCc1nc2c3ccccc3nc(SCC(=O)Nc3ccc(C(C)C)cc3)n2n1	17	1.3
Cc1ccc(C)c(CNC(=O)c2ccc3c(c2)nc2n3CCOC2)c1	5	-0.3
CCOC(=O)Cn1c(=O)n(CC2CCCO2)c2nc(-c3ccc(OCC)cc3)nc(C(N)=O)c21 (stereo not given)	6	2.1
O=C(NCc1ccccc1Cl)C1=Cc2cc(Br)ccc2OC1	-7	0.8
O=C1c2oc3ccccc3c(=O)c2C(c2ccc(O)cc2)N1Cc1ccc2c(c1)OCO2 (stereo not given)	7	0.8
O=C(NCc1ccc2c(c1)CCN2C(=O)c1ccc(F)cc1)c1cc2ccccc2[nH]1	-12	1.7
COc1ccc(NC(=O)c2c(NCc3ccc(C)o3)sc3c2CCCCC3)c(OC)c1	3	1.1
CCOc1ccccc1NC(=O)CN1C(=O)CC(c2ccco2)Sc2ccccc21 (stereo not given)	27	3.1
CCN(CC)S(=O)(=O)c1ccc2c(c1)c(=O)c(C(=O)N1CCN(c3cccc(Cl)c3)CC1)cn2C	17	-1.1
O=C(COc1ccc(Br)cc1)Nc1ccc(C(=O)OC2CCCCC2)cc1	0	2.6
COc1ccc(CNC(=O)C2CCN(S(=O)(=O)c3c(C)noc3/C=C/c3cccs3)CC2)cc1	-1	0.1
Cc1ccc2cc3cc(C(=O)N4CCN(c5ccccc5)CC4)oc3nc2c1	9	1.1
COc1ccccc1CNC(=O)Cn1c(=O)oc2cc(S(=O)(=O)N3CCC(C)CC3)ccc21	14	0.4
COc1ccc(S(=O)(=O)n2nc(-c3ccco3)nc2NCc2ccc(N(C)C)cc2)cc1	1	2.1
CCCCNC(=O)CSc1nc2nc(C)c(Cc3c(F)cccc3Cl)c(C)n2n1	-6	1.7
COC(=O)c1cc2sc(Cl)cc2n1Cc1c(C)cc(C)cc1C	-4	-0.2
Cc1ccc(NC(=O)c2sc3nc(-c4ccncc4)ccc3c2N)cc1	-4	?
CCc1ccc(-c2nc(CN3CCC(C(=O)NCCc4ccc(C)cc4)CC3)c(C)o2)cc1	-3	-0.3
O=S(=O)(NCCSc1nnnn1-c1ccccc1)c1ccc(F)cc1	31	-0.2
CCc1ccc(NCc2cc3cc4c(cc3n(CC(=O)Nc3ccc(OC)cc3)c2=O)OCO4)cc1	-12	-0.3
CC(=O)Nc1ccc(S(=O)(=O)NCCc2csc3nc(-c4cccc(C)c4)nn23)cc1	18	1.9
COC(=O)c1ccc(CSc2c(C(C)C)cnc3c2c(=O)n(C)c(=O)n3C)cc1	28	3.8
Fc1ccc(-c2cc3ncc4c(n3n2)-c2cc(Cl)ccc2OC4)cc1	-7	-0.4
CCOC(=O)c1cc(-c2ccccc2)n(CCC(=O)NCCc2ccc(C)cc2)c1C	18	2.0
Cc1noc(Cn2c(=O)c3ccccc3n(CC(=O)Nc3cccc(Cl)c3C)c2=O)n1	13	0.0
COc1cccc(N2CCN(C(=O)c3ccc4c(Cl)c5c(nc4c3)CCCC5)CC2)c1	-12	0.1
COc1ccc(CCNC(=O)CCCn2c(=O)c3ccccc3n(Cc3cccc(Cl)c3)c2=O)cc1OC	13	1.6
Cc1noc(-c2ccc(-c3noc(-c4ccc([N+](=O)[O-])c(C)c4)n3)cc2)n1	69	0.1
COC(=O)c1ccccc1NC(=O)CCn1nc(C)c2c(C)n(-c3ccccc3)nc2c1=O	0	-1.0
O=C(CN1C(=O)COc2ccc(S(=O)(=O)N3CCCCC3)cc21)NCCc1ccc(Cl)cc1	30	2.6
CCCCNC(=O)c1cc2n(n1)CCCN(Cc1ccc(C)cc1)C2=O	-13	-0.1
CCc1ccc(NC(=O)c2ccc(F)c(S(=O)(=O)N3CCC4(CC3)OCCO4)c2)cc1	-1	0.6
COc1ccc(C(=O)N(Cc2ccco2)Cc2ccco2)cc1	9	4.3
Cc1cccc(-n2c(=O)c3c4c(sc3n3cnnc23)CCCC4)c1	27	0.9
CCOc1ccc(C(=O)Nc2ccc3nc(SCC(=O)N4CCCC4)sc3c2)cc1	-3	1.4
CN(C)c1ccc(-c2noc(C3CC(=O)N(c4ccc5c(c4)OCCO5)C3)n2)cc1 (stereo not given)	44	0.8
CCN(c1ccccc1)S(=O)(=O)c1nnc(NC(=O)COc2ccc(OC)cc2)s1	-9	4.6
O=C(COC(=O)c1cccc(NC(=O)c2ccc(Br)cc2)c1)c1ccc(Cl)cc1	-8	-0.3
CCOC(=O)c1c(S(=O)(=O)N2CCC(C(=O)Nc3ccc(C)cn3)CC2)c(C)n(C)c1C	-7	-1.2
CC(C)c1ccc(C2NC(=O)c3c(sc4c3CCN(C)C4)N2)cc1 (stereo not given)	0	3.0
Cc1ccc(CN2C(=O)C3(c4ccccc42)N(c2cccc(F)c2)C(=O)CS3(=O)=O)cc1 (stereo not given)	0	0.8
O=C(CCc1nnc2n(Cc3ccccc3Cl)c(=O)c3ccccc3n12)Nc1ccccc1	9	0.3
Cc1cc(Br)ccc1NC(=O)C1CCCN(S(=O)(=O)c2cccc3nonc23)C1 (stereo not given)	-12	-0.4
CCOc1ccc(OCC)c(NC(=O)CCc2nc3cccnc3n2-c2ccccc2)c1	-4	2.1
CC(C)Oc1ccccc1-c1nc(SCC(=O)c2ccc(F)cc2)n[nH]1	-3	1.8
Cc1c(C(=O)N2CCC(C)CC2)c(S(=O)(=O)Nc2cccc(C(F)(F)F)c2)c(C)n1C	3	2.5
Cc1c(C(=O)OC2CCCCCC2)[nH]c2c1C(=O)CC(c1ccc(Cl)cc1)C2 (stereo not given)	7	0.2
Cc1cccc(C)c1OCc1nc2c3c(-c4ccccc4)c(-c4ccccc4)oc3ncn2n1	36	0.3
Cc1c(C(=O)NCc2ccccc2Br)oc2c1-c1[nH]ncc1CC2	29	1.0
CCc1ccc(NS(=O)(=O)c2ccc3[nH]cc(C(=O)N4CCCCCC4)c(=O)c3c2)cc1	30	2.3
Cc1ccc2nc(NC(=O)CSc3nccn3Cc3ccccc3)sc2c1	-8	3.3
CCCCn1c(=O)c2oc3ccccc3c2n(CC(=O)Nc2ccc(CC)cc2)c1=O	0	0.6
O=C(c1cn(CCOc2ccccc2F)c2ccccc12)C1CCCCC1	10	0.5
Cc1ccc(NC(=O)Cn2c(=O)ccc3cc(S(=O)(=O)N4CCC(C)CC4)ccc32)cc1C	-13	0.5

Next part.
SMILES	TRPML1 blocker	TRPML1 agonist
CCn1cc(C(=O)N2CCN(c3ccccc3)CC2)c(=O)c2cc(S(=O)(=O)N3CCCC3)ccc21	-6	-0.5
O=C(Cn1c(=O)nc(-c2ccccc2)c2cc(Cl)ccc21)Nc1ccc(F)c(Cl)c1	-7	-0.5
COc1cccc(CNC(=O)c2ccc(CSc3nc4ccncc4n3Cc3cccc(C)c3)cc2)c1	4	0.1
COc1ccc(CCNC(=O)c2cc(-c3ccc(Cl)cc3)on2)cc1OC	-6	-0.3
Cc1ccc(NC(=O)c2sc3nc(-c4ccc(F)cc4)cn3c2C)c(C)c1	60	3.1
C=Cc1ccc(Cn2c(C(=O)O)c(CNC3CCCCC3)c3ccc(C)cc32)cc1	6	4.8
CCOc1ccc(-n2c(SCC(=O)N3CCc4ccccc43)nc3c([nH]c4ccccc43)c2=O)cc1	-13	-0.1
CN(Cc1ccccc1)c1nc2c(S(=O)(=O)c3ccccc3)nnn2c2ccsc12	2	0.1
Clc1ccc(-c2nnn3c2nc(N2CCCCC2)c2ccccc23)cc1	6	-0.7
COc1cccc(CNC(=O)Cn2c(=O)cc(C(F)(F)F)c3c(C)nn(C)c32)c1OC	9	0.8
CCCOc1ccc(C2c3c(-c4ccccc4O)n[nH]c3C(=O)N2Cc2ccncc2)cc1OCC (stereo not given)	-8	1.3
CC1=C(C(N)=O)C(c2cccc(C)c2)n2nc(-c3cccc(C)c3)nc2N1 (stereo not given)	17	-0.5
CC1(C)O[C@H]2[C@@H](O1)[C@@H](C(=O)Nc1cc(F)ccc1F)O[C@@H]1OC(C)(C)O[C@@H]12	?	2.4
COc1c(C)cccc1C(=O)Nc1ccc(Cl)c(-c2nc3cc(C)ccc3o2)c1	2	-0.1
O=C(Cc1ccc(F)cc1)NCCc1csc2nc(-c3ccc(Cl)cc3)nn12	30	0.2
CCC1CN(C(=O)N2CCC(C(=O)NCCc3ccccc3C)CC2)c2ccccc2O1 (stereo not given)	3	1.9
O=C(NCc1ccccc1Cl)C1CCCN(C(=O)c2cnn(-c3ccccc3)c2-n2cccc2)C1 (stereo not given)	10	0.0
COc1cc(NC(=O)CC2C(=O)N(c3cccc(C)c3)C(=O)N2Cc2cccs2)cc(OC)c1 (stereo not given)	13	1.9
CCOc1ccc(-n2c(SCC(=O)N3CCCC3)nc3c([nH]c4ccccc43)c2=O)cc1	41	0.7
COc1ccc(C(=O)NCC(c2ccco2)S(=O)(=O)c2cccs2)cc1 (stereo not given)	-2	1.3
CCC(=O)NCC(c1ccc2c(c1)OCO2)N1CCN(c2ccccc2)CC1 (stereo not given)	-3	2.2
COc1ccc(NC(=O)Cn2cc(C(=O)c3ccccc3OC)c(=O)c3ccc(C)nc32)cc1OC	-2	2.0
CCOC(=O)c1c(NC(=O)c2ccc(Br)cc2)sc2c1CCCC2	-1	0.9
O=C(CCCc1nc(-c2ccco2)no1)Nc1ccccc1[N+](=O)[O-]	-8	0.2
CC(=O)N1CCN(c2csc3ccc(F)cc3c2=O)CC1	16	-0.7
O=C(Nc1ccc2c(c1)OCO2)c1cc(-c2ccc(Cl)cc2)on1	-10	-0.4
COC(=O)c1ccc2c(=O)n3nc(Nc4ccc(F)cc4F)sc3nc2c1	25	1.3
CCCCN(CC)CCCNC(=O)c1nn(C)c2c1CSc1ccccc1-2	-3	0.0
O=C(Cc1ccccc1F)N1CCC(c2nc3c(nnn3Cc3ccc(F)cc3)c(=O)[nH]2)CC1	-16	0.5
COc1ccc(N2CCN(S(=O)(=O)c3cc(Br)cc4c3N(C(=O)C3CC3)CC4)CC2)cc1	5	0.7

Sorted by molecular weight (smallest number first): part of the list above.
SMILES	TRPML1 blocker	TRPML1 agonist
CCCCN(CC)CCCNC(=O)c1nn(C)c2c1CSc1ccccc1-2	-3	0.0
COc1ccccc1CNC(=O)Cn1c(=O)oc2cc(S(=O)(=O)N3CCC(C)CC3)ccc21	14	0.4
CCOc1ccc(-n2c(SCC(=O)N3CCc4ccccc43)nc3c([nH]c4ccccc43)c2=O)cc1	-13	-0.1

Complete entries, looked up by structure. Order of values: TRPML1 blocker	TRPML1 agonist
COc1cc(NC(=O)CC2C(=O)N(c3cccc(C)c3)C(=O)N2Cc2cccs2)cc(OC)c1 (stereo not given) in the list: 13	1.9
CC(=O)N1CCN(c2csc3ccc(F)cc3c2=O)CC1 in the list: 16	-0.7

The list goes on:
SMILES	TRPML1 blocker	TRPML1 agonist
COc1ccc(-c2cn3nc(N4CCCC(C(=O)NCCCOC(C)C)C4)sc3n2)cc1 (stereo not given)	24	0.5
Cc1ccc(Cl)cc1NC(=O)CCCn1c(=O)c2cccn2c2ccccc21	-6	4.8
Cc1ccc(CNC(=O)NC2COc3ccccc3C2)cc1 (stereo not given)	1	0.4
COc1cc2nc(NCCc3ccc(Cl)cc3)n3nc(-c4ccccc4)nc3c2cc1OC	-2	-0.5
CCOc1ccc(NS(=O)(=O)c2ccc3[nH]cc(C(=O)NCCc4ccccc4)c(=O)c3c2)cc1	20	0.7
Cc1ccc(Cl)cc1N1CCN(C(=O)c2cn(C)c3ccc(S(=O)(=O)N4CCCCC4)cc3c2=O)CC1	10	0.3
CC(=O)c1ccc(N2CCN(C(=O)c3cc4ccc5cccnc5c4[nH]3)CC2)cc1	7	-0.5
Cc1cccc(-c2nc(SCc3cc(=O)c4cccc(F)c4[nH]3)n[nH]2)c1	39	5.6
Clc1ccc2nc(-c3cccs3)c(Nc3ccc4c(c3)OCCO4)n2c1	1	0.0
Cc1nn(-c2ccccc2)c2nc(C3CC3)cc(C(=O)Nc3ccccc3F)c12	19	-0.5

Shown in CSV form: 3 of the compounds above.
SMILES,TRPML1 blocker,TRPML1 agonist
COc1cc2nc(NCCc3ccc(Cl)cc3)n3nc(-c4ccccc4)nc3c2cc1OC,-2,-0.5
Cc1cccc(-c2nc(SCc3cc(=O)c4cccc(F)c4[nH]3)n[nH]2)c1,39,5.6
Cc1nn(-c2ccccc2)c2nc(C3CC3)cc(C(=O)Nc3ccccc3F)c12,19,-0.5

Assay outcomes: PubChem, National Center for Advancing Translational Sciences (NCATS)

Not all compounds are listed; rates above refer to the full screens.
